Assay outcomes deposited in PubChem by several laboratories.
Insulin prom inh: TRM-6 insulin promoter activity inhibition; TRM-6 cells (human fetal islet line), insulin promoter-eGFP reporter, imaging; reporter expression induced with tamoxifen; inhibition, % at 2 µM; 130,000 compounds, 0.9% hits;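 active = inhibition above the mean plus 3 SD, with well images judged a real hit on visual review, cut at about 60% in these data, passing the limit was not always enough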
RGS16-Gao: regulators of human RGS16-Galphao interaction; bead-based flow cytometry RGS16-Galphao binding, fluorescence; actives lie on both sides; 220,000 compounds, 0.38% hits; O15492+P09471; binding response (% of control), % at 10 µM;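 active = below 25% or above 175%, edge rows of some plates excepted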;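 also: Galphao activated by GDP with aluminum fluoride before binding; 100% = wells without compound and 0% = beads without RGS; some results beyond the cut were filed as inactive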
GALR2 agonist: activates the human galanin receptor 2 | O43603 | GALR2-expressing cells, agonist activation read-out | activation, %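 (tested at 5 µM)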 | 140,000 compounds, 0.48% hits | AID 803;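 active = above mean plus 3 SD of all compounds, about 5% in these data, not always enough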;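 also: 0% = vehicle buffer wells and 100% = reference agonist at full effect; tested in CHO reporter cells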
PKD1 kinase inh: PKD1 (human) kinase inhibition; Q15139; PKD1 kinase fluorescence polarization assay; inhibition, %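 (about 10 µM by stock and volumes)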; 200,000 compounds, 0.056% hits;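 active = inhibition of 50% or more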;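 also: controls were vehicle for no effect and a reference inhibitor for full effect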
Target sequence (Q15139 whole entry, looked up): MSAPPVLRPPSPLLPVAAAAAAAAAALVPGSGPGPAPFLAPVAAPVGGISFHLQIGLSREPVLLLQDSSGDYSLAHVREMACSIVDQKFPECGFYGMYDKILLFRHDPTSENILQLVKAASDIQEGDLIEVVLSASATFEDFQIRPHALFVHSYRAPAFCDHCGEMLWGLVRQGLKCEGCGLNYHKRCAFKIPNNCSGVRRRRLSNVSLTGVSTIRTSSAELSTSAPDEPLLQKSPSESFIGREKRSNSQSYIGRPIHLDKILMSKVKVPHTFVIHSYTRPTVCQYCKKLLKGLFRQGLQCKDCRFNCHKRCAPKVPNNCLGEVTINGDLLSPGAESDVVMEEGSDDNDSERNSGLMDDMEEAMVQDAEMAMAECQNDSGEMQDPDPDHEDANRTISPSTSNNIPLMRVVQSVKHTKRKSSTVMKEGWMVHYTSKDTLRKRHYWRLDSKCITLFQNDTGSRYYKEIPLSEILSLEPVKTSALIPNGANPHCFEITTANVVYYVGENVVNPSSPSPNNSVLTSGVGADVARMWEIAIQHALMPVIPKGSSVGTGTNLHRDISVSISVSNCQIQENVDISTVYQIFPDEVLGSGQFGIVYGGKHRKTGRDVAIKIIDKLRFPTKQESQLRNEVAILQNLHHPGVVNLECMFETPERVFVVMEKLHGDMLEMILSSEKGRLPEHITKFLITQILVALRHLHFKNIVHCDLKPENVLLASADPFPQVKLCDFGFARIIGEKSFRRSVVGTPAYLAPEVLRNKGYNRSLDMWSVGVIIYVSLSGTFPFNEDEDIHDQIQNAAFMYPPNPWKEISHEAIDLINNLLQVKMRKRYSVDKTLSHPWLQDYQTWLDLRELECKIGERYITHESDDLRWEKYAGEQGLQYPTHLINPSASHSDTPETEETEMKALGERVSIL
HSV augment: increases HSV replication in cells. maximum fold increase. HSV replication augmentation in cells, fold increase. 220,000 compounds, 0.005% hits. AID 1956;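 active = peak rise of 1.5-fold or more in the series; tested in PC3 cells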;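 also: first round at 10 µM; read as green reporter fluorescence; hits show the peak of a series up to 25 µM; 1 = signal of infected wells without compound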
Insulin prom inh cell count: further read-out of Insulin prom inh, marked with its call; normalized cell count, %; measured here: cell count, toxicity; reference of the scale not given here;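 cells exposed to compound for 48 h; stained nuclei by imaging scaled within each plate; lower means fewer cells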
HSV augment primary fold: further read-out of HSV augment, marked with its call; fold increase; compound at 10 µM; measured here: primary screen fold increase 10 uM; tested in PC3 cells;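 GFP signal in the first replicate; 1 = infected wells without compound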
Active calls of the source: *.

`Cc1cc(C(=O)OCC(=O)N2CCc3ccccc32)c(C)o1` gave Insulin prom inh -175, RGS16-Gao 100, GALR2 agonist -0.3, PKD1 kinase inh -8, HSV augment inactive, Insulin prom inh cell count 32 and HSV augment primary fold 0.98.
`COc1ccc(-n2c(=O)cc(N3CCc4ccccc43)[nH]c2=O)cc1` gave Insulin prom inh 33, RGS16-Gao 104, GALR2 agonist -1.0, PKD1 kinase inh 3, HSV augment inactive, Insulin prom inh cell count 24 and HSV augment primary fold 0.94.
For O=C(Nc1scc(-c2cccs2)c1C(=O)O)c1cccs1 the results were Insulin prom inh 50, RGS16-Gao 102, GALR2 agonist -0.9, PKD1 kinase inh -7, HSV augment inactive, Insulin prom inh cell count 38 and HSV augment primary fold 0.94.
`CCOC(=O)Nc1ccc(NS(=O)(=O)c2ccc(C)cc2)cc1` gave Insulin prom inh -14, RGS16-Gao 103, GALR2 agonist -0.6, PKD1 kinase inh -3, HSV augment inactive, Insulin prom inh cell count 68 and HSV augment primary fold 0.88.
Cc1cccc(NC(=O)Cn2nnc(-c3cccs3)n2)c1C was read as RGS16-Gao 109, GALR2 agonist 0.5, PKD1 kinase inh -1, HSV augment inactive and HSV augment primary fold 0.76.
For CCN(CC)S(=O)(=O)c1cc(C(=O)Oc2cccc(-c3cnc4ccccc4n3)c2)ccc1OC the results were RGS16-Gao 103, GALR2 agonist 0.0, PKD1 kinase inh -4, HSV augment inactive and HSV augment primary fold 0.94.
Cc1ccc(SCCOCCN2CC(C)OC(C)C2)cc1 (stereo unspecified) was read as RGS16-Gao 96, HSV augment inactive and HSV augment primary fold 0.9.
O=C(CN1c2ccccc2Sc2ccccc21)N/N=C/c1ccc([N+](=O)[O-])cc1 was read as RGS16-Gao 100, HSV augment inactive and HSV augment primary fold 0.85.
`Cc1ccc(/C=N\NC(=O)C2COc3cc4ccccc4cc3O2)o1` (stereo unspecified) gave Insulin prom inh 42, RGS16-Gao 99, GALR2 agonist -2.0, PKD1 kinase inh 6, HSV augment inactive, Insulin prom inh cell count 75 and HSV augment primary fold 0.98.
Nc1cc(N)nc(SCC(=O)NCC2CCCO2)n1 (stereo unspecified) was read as Insulin prom inh 65, RGS16-Gao 93, GALR2 agonist -3.6, PKD1 kinase inh 4, HSV augment inactive, Insulin prom inh cell count 145 and HSV augment primary fold 0.83.
For CC(=O)c1c(C)[nH]c(C(=O)Nc2ccc(C)cn2)c1C the results were RGS16-Gao 94, GALR2 agonist 0.1, PKD1 kinase inh -7, HSV augment inactive and HSV augment primary fold 1.
Screening CCOC(=O)N1CCN(c2ccc(F)cc2[N+](=O)[O-])CC1 returned Insulin prom inh -25, RGS16-Gao 101, GALR2 agonist -0.9, PKD1 kinase inh 9, HSV augment inactive, Insulin prom inh cell count 99 and HSV augment primary fold 1.
Screening O=S(=O)(Nc1ccncc1)c1ccccc1 returned RGS16-Gao 106, GALR2 agonist -0.9, PKD1 kinase inh 6, HSV augment inactive and HSV augment primary fold 0.94.
O=C(NC(=S)NCCc1ccccc1)c1ccco1 was read as Insulin prom inh -26, RGS16-Gao 100, GALR2 agonist -1.0, PKD1 kinase inh 0 and Insulin prom inh cell count 97.
For O=C(Nc1ccccc1)Nc1ccc(F)c([N+](=O)[O-])c1 the results were Insulin prom inh 29, RGS16-Gao 96, GALR2 agonist -1.1, PKD1 kinase inh 10, HSV augment inactive, Insulin prom inh cell count 117 and HSV augment primary fold 1.
CC(=O)Nc1ccccc1OCC(=O)NC(C)c1ccc(F)cc1 (stereo unspecified) was read as RGS16-Gao 101, GALR2 agonist -1.0 and PKD1 kinase inh -3.
Screening CCS(=O)(=O)Nc1ccc(C2=NN(C(=S)Nc3ccccc3)C(c3ccco3)C2)cc1 (stereo unspecified) returned RGS16-Gao 46, GALR2 agonist -0.8, PKD1 kinase inh 5, HSV augment inactive and HSV augment primary fold 1.1.
`CCCCOc1ccc(CNn2c(C)nc3ccccc3c2=O)cc1` gave RGS16-Gao 103, GALR2 agonist -0.4, PKD1 kinase inh 1, HSV augment inactive and HSV augment primary fold 1.5.
For COc1ccc(NC(=O)CCN2CCCCCC2)c(OC)c1 the results were Insulin prom inh -15, RGS16-Gao 102, GALR2 agonist -2.4, PKD1 kinase inh -8, HSV augment inactive, Insulin prom inh cell count 127 and HSV augment primary fold 0.73.
`CCC(=O)Nc1cccc(C2=NOC3(C2)C[C@@H](C(N)=O)N(C(=O)COc2ccc(Cl)cc2)C3)c1` (stereo partly specified) gave RGS16-Gao 99, HSV augment inactive and HSV augment primary fold 0.69.

Three entries out of the list, arranged by molar mass, low to high:
For O=C(Nc1ccccc1)Nc1ccc(F)c([N+](=O)[O-])c1 the results were Insulin prom inh 29, RGS16-Gao 96, GALR2 agonist -1.1, PKD1 kinase inh 10, HSV augment inactive, Insulin prom inh cell count 117 and HSV augment primary fold 1.
`Cc1cc(C(=O)OCC(=O)N2CCc3ccccc32)c(C)o1` gave Insulin prom inh -175, RGS16-Gao 100, GALR2 agonist -0.3, PKD1 kinase inh -8, HSV augment inactive, Insulin prom inh cell count 32 and HSV augment primary fold 0.98.
`CCOC(=O)Nc1ccc(NS(=O)(=O)c2ccc(C)cc2)cc1` gave Insulin prom inh -14, RGS16-Gao 103, GALR2 agonist -0.6, PKD1 kinase inh -3, HSV augment inactive, Insulin prom inh cell count 68 and HSV augment primary fold 0.88.

Structural class: the compounds so far containing an aryl thioether with sulfur outside any ring.
Cc1ccc(SCCOCCN2CC(C)OC(C)C2)cc1 (stereo unspecified) was read as RGS16-Gao 96, HSV augment inactive and HSV augment primary fold 0.9.
Nc1cc(N)nc(SCC(=O)NCC2CCCO2)n1 (stereo unspecified) was read as Insulin prom inh 65, RGS16-Gao 93, GALR2 agonist -3.6, PKD1 kinase inh 4, HSV augment inactive, Insulin prom inh cell count 145 and HSV augment primary fold 0.83.

(listing goes on)
`Cc1noc(C)c1S(=O)(=O)N1CCC(C(=O)N2CCC(N3CCCCC3)CC2)CC1` gave RGS16-Gao 110 and PKD1 kinase inh -11.
For CCOc1cccc(/C(O)=C2/C(=O)C(=O)N(CCN3CCOCC3)C2c2cccnc2)c1 (stereo unspecified) the results were Insulin prom inh inactive, RGS16-Gao 167, GALR2 agonist -3.6, PKD1 kinase inh -3, HSV augment inactive, Insulin prom inh cell count 57 and HSV augment primary fold 1.
Screening CC1(C)N=C(/C=N/O)C=[N+]1[O-] returned Insulin prom inh 28, RGS16-Gao 109, GALR2 agonist -2.1, PKD1 kinase inh -12, HSV augment inactive, Insulin prom inh cell count 127 and HSV augment primary fold 0.99.
For c1ccc(-c2cnc(-c3ccccc3)nc2)cc1 the results were Insulin prom inh 36, RGS16-Gao 100, GALR2 agonist -2.2, PKD1 kinase inh -8, HSV augment inactive, Insulin prom inh cell count 89 and HSV augment primary fold 0.73.
O=C(NCc1ccccc1)c1ccccc1OCC(=O)N1CCCCC1 was read as Insulin prom inh -35, RGS16-Gao 96, GALR2 agonist -2.5, PKD1 kinase inh -9, HSV augment inactive, Insulin prom inh cell count 93 and HSV augment primary fold 1.1.
Screening CCN(CC)C(=O)C(=O)c1cccn1-c1cccc(OC)c1C#N returned RGS16-Gao 101, PKD1 kinase inh 2, HSV augment inactive and HSV augment primary fold 0.92.
`Cc1ccc(/C=N/NC(=O)c2cccs2)cc1[N+](=O)[O-]` gave Insulin prom inh 42, RGS16-Gao 103, GALR2 agonist -2.0, PKD1 kinase inh -3 and Insulin prom inh cell count 119.
For CCc1cccc(CC)c1NC(=O)NC1CCCCC1 the results were Insulin prom inh -7, RGS16-Gao 109, GALR2 agonist -0.5, PKD1 kinase inh -18, HSV augment inactive, Insulin prom inh cell count 92 and HSV augment primary fold 1.
COc1cccc(NC(=O)N2CCC(n3nnc4ccccc43)CC2)c1 was read as RGS16-Gao 99, PKD1 kinase inh -9, HSV augment inactive and HSV augment primary fold 1.3.
For COc1ccc(C(=O)CSc2ncnc3nc[nH]c23)cc1 the results were RGS16-Gao 96, HSV augment inactive and HSV augment primary fold 1.
For Cc1ccc(CC(=O)NCCCc2ccccc2)cc1 the results were Insulin prom inh -24, RGS16-Gao 103, GALR2 agonist -2.9, PKD1 kinase inh -6, HSV augment inactive, Insulin prom inh cell count 120 and HSV augment primary fold 1.1.
O=C1CCCC2=C1C(c1ccc(OS(=O)(=O)c3ccc(Cl)cc3)cc1)C1=C(CCCC1=O)O2 was read as Insulin prom inh -65, RGS16-Gao 100, GALR2 agonist -3.2, PKD1 kinase inh -2, HSV augment inactive, Insulin prom inh cell count 79 and HSV augment primary fold 0.78.
`COCCNC(=O)CSc1ccccc1C(=O)O` gave RGS16-Gao 99, PKD1 kinase inh -1, HSV augment inactive and HSV augment primary fold 0.65.
`CCCC1O[C@@H]2CC3C4CCC5=CC(=O)C=C[C@]5(C)C4C(OC(C)=O)C[C@]3(C)[C@]2(C(=O)COC(C)=O)O1` (stereo partly specified) gave Insulin prom inh -11, RGS16-Gao 98, GALR2 agonist -1.5, PKD1 kinase inh -3, HSV augment inactive, Insulin prom inh cell count 109 and HSV augment primary fold 0.97.
`CC(C)(C)NC(=S)N/N=C/c1cc(Br)c(O)c(Br)c1` gave RGS16-Gao 105, HSV augment inactive and HSV augment primary fold 0.87.
`NC(=O)CN1C(=O)C(O)(CC(=O)c2ccccc2O)c2ccccc21` (stereo unspecified) gave RGS16-Gao 110, GALR2 agonist 0.1, PKD1 kinase inh -12, HSV augment inactive and HSV augment primary fold 0.86.
CCC(=O)Nc1nn(C)c2nc3c(C)cccc3cc12 was read as Insulin prom inh -14, RGS16-Gao 93, GALR2 agonist -0.3, PKD1 kinase inh -8, HSV augment inactive, Insulin prom inh cell count 157 and HSV augment primary fold 0.97.
`Cc1nnc(SCC(=O)N/N=C/c2cc(Cl)c(O)c(Cl)c2)s1` gave RGS16-Gao 101, GALR2 agonist 0.5, PKD1 kinase inh -4, HSV augment inactive and HSV augment primary fold 1.
For Cc1ccc(-c2noc(CC(c3ccccc3)c3ccccc3)n2)cc1 the results were Insulin prom inh 23, RGS16-Gao 97, GALR2 agonist 0.1, PKD1 kinase inh -4, HSV augment inactive, Insulin prom inh cell count 69 and HSV augment primary fold 0.99.
Screening O=C1c2cccnc2C(=O)N1Cc1ccc2c(c1)OCO2 returned Insulin prom inh 4, RGS16-Gao 102, GALR2 agonist -0.1, PKD1 kinase inh 0, HSV augment inactive, Insulin prom inh cell count 122 and HSV augment primary fold 0.97.
CC(=O)c1cccc(NC(=O)C2CC(c3ccc(F)cc3)=NO2)c1 (stereo unspecified) was read as Insulin prom inh 42, RGS16-Gao 99, GALR2 agonist -1.5, PKD1 kinase inh 2, HSV augment inactive, Insulin prom inh cell count 166 and HSV augment primary fold 0.99.
`CCOC(=O)c1[nH]c(C)c(/C(O)=C2\C(=O)C(=O)N(CCN(C)C)C2c2ccncc2)c1C` (stereo unspecified) gave Insulin prom inh -3, RGS16-Gao 128, GALR2 agonist -0.5, PKD1 kinase inh -9, HSV augment inactive, Insulin prom inh cell count 97 and HSV augment primary fold 0.84.
CCCn1nnnc1SCC(=O)N1CCN(C(=O)c2ccco2)CC1 was read as Insulin prom inh -58, RGS16-Gao 102, GALR2 agonist 0.9, PKD1 kinase inh 0, HSV augment inactive, Insulin prom inh cell count 86 and HSV augment primary fold 1.1.
`COc1cccc(OC)c1C(=O)OCC(=O)NCC(C)C` gave Insulin prom inh 0, RGS16-Gao 57, PKD1 kinase inh 2, HSV augment inactive, Insulin prom inh cell count 99 and HSV augment primary fold 0.98.
For O=C(/C=C/N1CCOCC1)c1ccc(-c2ccccc2)cc1 the results were Insulin prom inh 60, RGS16-Gao 96, GALR2 agonist -1.5, PKD1 kinase inh 0, HSV augment inactive, Insulin prom inh cell count 110 and HSV augment primary fold 0.87.
Screening Cc1ccccc1NC(=O)CCN1CCCCCC1 returned GALR2 agonist -1.7, PKD1 kinase inh -9, HSV augment inactive and HSV augment primary fold 0.7.
`Cc1nn(C)cc1CNC(=O)c1cccc(Br)c1` gave RGS16-Gao 98, GALR2 agonist -1.4, PKD1 kinase inh -2, HSV augment inactive and HSV augment primary fold 0.73.
For CC(=O)N/C(=C\c1ccc(F)cc1)C(=O)NC(Cc1ccccc1)C(=O)O (stereo unspecified) the results were RGS16-Gao 102, HSV augment inactive and HSV augment primary fold 1.1.
`Cc1nn(-c2ccccc2)c2c1C(c1ccc(Cl)cc1)N(c1ccccc1)C(=O)N2` (stereo unspecified) gave Insulin prom inh 3, RGS16-Gao 111, GALR2 agonist -1.1, PKD1 kinase inh 3, HSV augment inactive, Insulin prom inh cell count 115 and HSV augment primary fold 0.98.
For COC(=O)CCC(=O)Nc1sc(C)c(C)c1C(N)=O the results were GALR2 agonist -1.6, PKD1 kinase inh -8, HSV augment inactive and HSV augment primary fold 0.99.
